Measles inh: inhibitors of measles virus growth in infected cells; infected Vero cells, GFP fluorescence, 64 h; stronger effect = lower value; AID 745; hit rate 0.1% among 33,000; z-score (test concentration not listed);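 active = z-score under -3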;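 also: score is relative to mean and SD of the compound wells of a plate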
The depositor's hits bear a star. An excerpt; rates above refer to the full screens.

smiles,Measles inh
Cc1cc(C(=O)CN2CCC(C)CC2)c(C)n1-c1ccc(Cl)c(C(F)(F)F)c1,-0.82
COc1cccc(-c2ccc3c(N)c(C(=O)NCc4ccc(Cl)cc4)sc3n2)c1,-0.15
CCOC(=O)c1c(NC(=O)c2ccc(Cl)cc2)sc2c1CCC(C)C2 (centres undefined),0.9
O=C(CCn1nc(-c2ccccc2)ccc1=O)NCc1ccco1,0.07
CC1=C(C(=O)Nc2ccc(C)cn2)C(c2ccccc2)C2=C(CCCC2=O)N1 (centres undefined),0.54
N#Cc1ccccc1NC(=O)CSc1nc2c(cc1C#N)CCCCC2,-1.64
CC(C)(C)c1ccc(-c2nnc3n2N=C(c2ccc(F)cc2)CS3)cc1,-0.14
O=C(CN1C(=O)c2ccccc2C1=O)Nc1ccc(N2CCOCC2)cc1,0.1
O=C(CC1(O)C(=O)N(Cc2ccc(Cl)cc2)c2ccccc21)c1ccc2ccccc2c1 (centres undefined),0.18
Cc1cccn2c(=O)c3cc(C(=O)Nc4cccnc4)sc3nc12,-1.13
CC(=O)Nc1ccc(S(=O)(=O)N2CCN(S(C)(=O)=O)CC2)cc1,-0.92
Cc1ccc(C2CC(=O)Nc3cc4c(cc32)OCCO4)cc1[N+](=O)[O-] (centres undefined),1.49
CC1=CC(=Cc2sc3ccccc3[n+]2C)C=C(C)O1,-0.61
COC(=O)C1=C(C)NC2=C(C(=O)CCC2)C1c1ccccc1I (centres undefined),0.03
CCCCNC(=O)CCn1nc(-c2ccc(C)cc2)ccc1=O,0.32
O=C(CSCc1ccc(F)c2ccccc12)Nc1ccc2ccccc2c1,0.23
Cc1cc2nnc(SCC(=O)Nc3ccccc3C#N)n2c2ccccc12,1.65
COCCn1cc(C(=O)N2CCN(Cc3ccccc3)CC2)c2c3ccccc3n(C)c2c1=O,-0.62
COc1cc2c(cc1OC)CN(S(=O)(=O)c1ccc(Oc3ccccc3)cc1)CC2,1.26
Cc1ccc(CNS(=O)(=O)c2cccc3nsnc23)o1,0.64
CSc1sc(C)cc1C1C(C(=O)Nc2cccc(C)n2)=C(C)NC2=C1C(=O)CC(C)(C)C2 (centres undefined),-0.1
CC(=O)Nc1ccc(S(=O)(=O)NCC2CCC(C(=O)NC3CCCCC3C)CC2)cc1 (centres undefined),1.76
COc1ccc(NC2=C(Cl)C(=O)N(c3cccc(C(F)(F)F)c3)C2=O)cc1Cl,0.03
CC(=O)Nc1ccc(C(=O)Nc2ccccc2C(=O)O)cc1,-1.62
O=C1CC(c2ccccc2Cl)CC2=C1C(c1cccc(C(F)(F)F)c1)Nc1ccccc1N2 (centres undefined),-0.88
CCOC(=O)c1c(NC(=O)Cc2ccccc2)sc2c1CCCC2,-0.7
Cc1ccccc1OCCn1c(=N)n(CCO)c2ccccc21,-0.13
COc1cccc(C2=NN(C(=O)c3ccc(C(C)(C)C)cc3)C(O)(C(F)(F)F)C2)c1 (centres undefined),0.93
S=C(c1ccc(-c2ccc(Br)cc2)o1)N1CCOCC1,-0.05
Cc1cc(C)c(C(=O)c2ccccc2)cc1C(=O)c1ccccc1,1.5
COC(=O)c1ccc(C(=O)OC)c(NC(=O)c2cc3c(ccc4ccccc43)oc2=O)c1,0.54
COc1ccc(OC)c(NC(=O)Cn2ccc3ccccc3c2=O)c1,-0.44
Cc1nnc(SCC(=O)c2ccc(Cl)cc2)s1,0.1
CC(C)(C)C1CCc2c(sc(NC(=O)COc3ccccc3)c2C(N)=O)C1 (centres undefined),-0.6
COc1ccc(OC)c(NC(=O)C2=C(C)NC(=O)NC2c2ccccc2F)c1 (centres undefined),0.03
O=C(CCCOc1ccc(Cl)cc1)Nc1ncc(Cc2ccc(F)cc2)s1,0.24
CCOC(=O)c1c(NC(=O)c2cc(-c3ccc4c(c3)OCO4)on2)sc2c1CCCC2,0.93
CC(=O)Nc1cccc(NC(=O)C(C)C)c1,-0.2
COc1ccc(OC)c(NC(=O)c2cc3cccc(OC)c3oc2=O)c1,-0.17
Nc1ccc2oc(-c3cccc(Cl)c3)nc2c1,-0.64
Cc1cc(=O)oc2ccc(Oc3ccc(C#N)cc3[N+](=O)[O-])cc12,-0.45
Cc1ccc2nsnc2c1S(=O)(=O)N1CCN(c2ccc(F)cc2)CC1,0.14
Cn1c(=N)n(CC(=O)C23CC4CC(CC(C4)C2)C3)c2ccccc21,2.55
CCOC(=O)c1cnc(=S)[nH]c1N,-0.04
CC1=CC(C)(C)N(C(=O)CSc2ncn[nH]2)c2cc(C)ccc21,0
COc1ccc(CC(=O)N2N=C(C)CC2(O)C(F)(F)F)cc1 (centres undefined),0.59
O=C(NCc1ccccc1)c1cc2ccccc2o1,-1.07
Cn1ncc([N+](=O)[O-])c1C(=O)NCC(=O)O,0.11
O=C(O)CSc1cc(NS(=O)(=O)c2ccc(Br)cc2)c2ccccc2c1O,-0.06
O=C(CSc1ncccn1)c1ccc(O)c(O)c1,0.58

Another view of 3 compounds above.
Measles inh,compound
-1.07,O=C(NCc1ccccc1)c1cc2ccccc2o1
0.11,Cn1ncc([N+](=O)[O-])c1C(=O)NCC(=O)O
-0.06,O=C(O)CSc1cc(NS(=O)(=O)c2ccc(Br)cc2)c2ccccc2c1O

More structures:
smiles,Measles inh
Nc1cc(Oc2ccc(Cl)cc2)cc(Sc2ccccn2)c1,-0.14
COC(=O)c1ccc2c(=O)n(CCC3=CCCCC3)c(=S)[nH]c2c1,1.85
Cc1ccc(C(=O)Nc2cc(-c3nn(C)c(=O)c4ccccc34)ccc2N2CCOCC2)cc1,0.2
CC(C)Oc1ccc(-c2cc(C(=O)O)c3cc(Br)ccc3n2)cc1,-0.07
COC(=O)c1cc(NC(=O)c2cc3c(C)nn(-c4ccccc4)c3s2)cc(C(=O)OC)c1,0.05
O=C1CN(C(=O)C2CCCCC2)C(c2ccccc2)c2cc(F)ccc2N1 (centres undefined),-0.94
CCN(CCCNC(=O)c1cc2cc3ccc(OC)cc3nc2s1)c1ccccc1,-1.36
CCOc1ccc(C(=O)Nc2cccc(C(=O)Nc3cccc4ccccc34)c2)cc1[N+](=O)[O-],-0.38
O=C(c1cnn2c(C(F)(F)F)cc(-c3ccccc3)nc12)N1CCc2ccccc2C1,-0.29
COc1cc(-c2nc(Nc3ccc(C)cc3)c3ccccc3n2)cc(OC)c1OC,-0.38
C=CCSc1nc2c(cnn2-c2ccc(C)c(C)c2)c(=O)[nH]1,0.04
CCc1ccccc1NC1=C(Cl)C(=O)N(c2ccccc2Cl)C1=O,-0.18
COc1cc(O)ccc1-c1nc2cc(C)ccn2c1Nc1ccccc1C,-0.15
O=C(Nc1ccc(-c2cnc(-c3ccc(NC(=O)C(F)(F)F)cc3)nc2)cc1)C(F)(F)F,-0.34
O=S(=O)(NCCC1=CCCCC1)c1cccs1,-1.63
CCCc1ccc(O)c(N=Cc2cc([N+](=O)[O-])cc(OC)c2O)c1,-1.49
CC1CN(C(=O)c2c(NC(=O)c3ccc(Cl)cc3)sc3c2CCC(C(C)(C)C)C3)CC(C)O1 (centres undefined),0.09
O=C1C(c2ccc(F)cc2)N(Cc2ccccc2)C(=O)CN1C1CCCC1 (centres undefined),0.44
CCOC(=O)C1CCCN(c2cc(Nc3ccc4c(c3)OCCO4)c3c4c(onc24)-c2ccccc2C3=O)C1 (centres undefined),-0.25
COC(=O)c1ccc(NC(=O)CSc2nccn2C)cc1,0.5
COC(=O)c1cnn(C(=O)c2ccccc2Br)c1N,1.16
CCOC(=O)C1=C(C(F)(F)F)Nc2nnnn2C1c1ccc(OC)c(OC)c1 (centres undefined),0.04
FC(F)(F)c1cccc(Nc2ncnc3ccc(Br)cc23)c1,-0.26
CCOC(=O)COc1ccc2c(c1)C(=O)CC(C)(c1cccnc1)O2 (centres undefined),-0.41
CCOc1cc2c(cc1OCC)C1C(C(=O)NC(C)C)c3ccccc3C(=O)N1CC2 (centres undefined),0.36
COc1ccc(C2NC(=O)NC(C)=C2C(=O)OCCCCl)cc1OC (centres undefined),1.22
CCc1ccc(C2Nc3ccccc3C(=O)N2c2ccc(NC(C)=O)cc2)cc1 (centres undefined),0.46
CC1CN(C(=O)c2ccncc2)C(C)CN1C(=O)c1ccncc1 (centres undefined),-2.12
CC1(C)C2CCC1(CS(=O)(=O)Nc1ccc(Cl)cc1)C(=O)C2 (centres undefined),-0.73
CC(=O)C(C(C)=O)C(NC(=O)c1ccc(C)cc1)(C(F)(F)F)C(F)(F)F,-1.01
CCCSc1nnc(-c2c[nH]c3ccccc23)n1C,0.64
O=C1Nc2ccc3ccccc3c2C(c2ccccc2)N1 (centres undefined),1.1
CCOC(=O)c1cc2c(=O)n3ccccc3nc2n(Cc2ccco2)c1=N,-1
CCN1CNC(=S)N(c2cc(C)ccc2C)C1,-0.24
Cc1ccc(C2/C(=C(\O)c3ccc(Br)cc3)C(=O)C(=O)N2CCCn2ccnc2)cc1 (centres undefined),-0.33
CCC1Oc2ccccc2N(CC(=O)NC2CCCCCC2)C1=O (centres undefined),-0.81
Cc1cc(C)n2c(SCCc3ccccc3)nnc2n1,0.01
O=C(Nc1nnc(-c2ccc(Cl)s2)o1)c1ccc(S(=O)(=O)N2CCCC2)cc1,-0.91
CCOc1cccc2c1OC1(C)NC(=S)NC2C1C(=O)Nc1ccc(C)cc1C (centres undefined),0.33
OCc1nc2ccc(Cc3ccc4nc(CO)[nH]c4c3)cc2[nH]1,-0.16
CCC(=O)Nc1nc(C)c(-c2csc(Nc3ccc(N(CC)CC)cc3)n2)s1,-0.42
COc1ccc2c(c1)c(=O)oc1c(C)c(OCC(=O)OC(C)C)ccc12,-1.27
Cc1cc2cc(CCNC(=O)c3ccc(Cl)cc3)c(=O)[nH]c2cc1C,-0.43
O=C(Nc1c(O)c2ccccc2[nH]c1=O)c1ccncc1,-0.94
O=C(Cc1ccccc1)Oc1ccccc1N1C(=O)C2C3CCC(C3)C2C1=O (centres undefined),0.71
O=C(c1nn2c(c1Br)NC(c1cccs1)CC2C(F)(F)F)N1CCOCC1 (centres undefined),-2.05
CCSc1nc2c(c(=O)[nH]1)C(c1ccc(O)cc1)C1=C(CC(C)(C)CC1=O)N2 (centres undefined),-0.54
CCC(C)c1c(O)nc(SCC(=O)Nc2nc3ccccc3s2)[nH]c1=O (centres undefined),-0.09
Cc1cccc(NC(=O)c2cc3c(CO)cnc(C)c3oc2=O)c1,-0.13
COc1ccc(C=Nc2ccc(-c3ccc(N=Cc4ccc(OC)c(O)c4)cc3)cc2)cc1O,-0.76

Next results.
smiles,Measles inh
CC(C)(C)C1CCc2onc(C(=O)Nc3cc(Cl)ccc3O)c2C1 (centres undefined),-1.15
Cc1nc2cc(C(=O)NCc3cccnc3)ccc2n1-c1ccc(Br)cc1,0.04
CC(C)c1ccc(C2NC(=O)NC3=C2C(=O)CC(C)(C)C3)cc1 (centres undefined),0.22
CC1CCCN(S(=O)(=O)c2ccc(C(=O)Nc3ccccc3-c3nc4ccccc4s3)cc2)C1 (centres undefined),-0.14
CCOc1ccc(C(=O)Nc2ccc(OC)c3ccccc23)cc1,-0.63
CC(C)Cn1cc(C(=O)N2CCN(c3ccccc3F)CC2)c2c3ccccc3n(C)c2c1=O,-0.21
CCc1ccc(-n2c(=O)c3ccccc3n(CC(=O)Nc3ccccc3C(=O)OC)c2=O)cc1,-0.5
CCC(C)NS(=O)(=O)c1ccc(NC(C)=O)cc1 (centres undefined),0.1
CCn1c2ccc(C)cc2c2nc3ccccc3nc21,0.3
CSc1ccc(C2Nc3ccccc3NC3=C2C(=O)CC(c2ccc(Cl)cc2)C3)cc1 (centres undefined),0.45
O=C(NCCCn1ccnc1)C(=O)Nc1ccccc1,0.07
C=CCn1c(SCC(=O)Nc2cccc(C(F)(F)F)c2)nnc1-c1cccc(Br)c1,0.53
CC(=O)C1=C(O)C(=O)N(CCC(=O)O)C1c1cccc(F)c1 (centres undefined),0.49
COc1ccc(C(=O)Nc2ccc3oc(-c4ccc(C)cc4)nc3c2)cc1[N+](=O)[O-],1.72
O=C(C1CC1)N1CCc2cc(Br)cc(S(=O)(=O)N3CCN(c4ccccc4)CC3)c21,-0.6
Cc1cccc(-n2cnc3cc(C(=O)NCC4CCCO4)ccc32)c1 (centres undefined),0.86
O=C(NCCN1CCOCC1)C1CCN(S(=O)(=O)N2CCCC2)CC1,1.72
Cc1cccc(CSCc2ccc(C(=O)NC3CCCCC3)o2)c1,-1.82
COc1ccc(C2=Nn3c(nnc3-c3ccc(Br)cc3)SC2)cc1,-0.35
Cn1c(=O)c2c(nc(SCC#N)n2C)n(C)c1=O,0.67
Cc1ccc(-c2nc3ccccn3c2Nc2ccccc2C)s1,-2.09
Cc1cccc(C)c1NC(=O)C1(N(Cc2ccco2)C(=O)c2ccn[nH]2)CCCCC1,-2.17
CCc1ccc(NC(=O)c2cc3n(n2)C(C(F)(F)F)CC(c2ccccc2)N3)cc1 (centres undefined),-0.33
CCCOc1ccc(-c2csc(NC(=O)c3ccc(S(=O)(=O)N4CCCCC4)cc3)n2)cc1,-0.85
CN(C)c1ccc(CNc2ccc(-c3nc4ccccc4s3)cc2)cc1,-0.27
O=c1c2sccc2nc(SCc2cccc([N+](=O)[O-])c2)n1Cc1ccccc1,-0.27
CCOP(=O)(Cc1cc(C(C)(C)C)c(O)c(C(C)(C)C)c1)OCC,-1.02

Looked up above:
`CC(=O)Nc1ccc(S(=O)(=O)NCC2CCC(C(=O)NC3CCCCC3C)CC2)cc1` (centres undefined) – Measles inh: 1.76
`CCOC(=O)c1cc2c(=O)n3ccccc3nc2n(Cc2ccco2)c1=N` – Measles inh: -1
`COc1ccc(C=Nc2ccc(-c3ccc(N=Cc4ccc(OC)c(O)c4)cc3)cc2)cc1O` – Measles inh: -0.76
`COC(=O)c1cc(NC(=O)c2cc3c(C)nn(-c4ccccc4)c3s2)cc(C(=O)OC)c1` – Measles inh: 0.05

Three structures out of the list, sorted by number of heavy atoms, ascending:
smiles,Measles inh
CCOP(=O)(Cc1cc(C(C)(C)C)c(O)c(C(C)(C)C)c1)OCC,-1.02
O=C(NCCN1CCOCC1)C1CCN(S(=O)(=O)N2CCCC2)CC1,1.72
O=c1c2sccc2nc(SCc2cccc([N+](=O)[O-])c2)n1Cc1ccccc1,-0.27

High-throughput results from PubChem BioAssay.
